# From PubChem
# Polio RdRp inh: poliovirus RNA polymerase inhibition. P03300. poliovirus polymerase elongation, fluorescence polarization; hits give low values. % elongation, % (compound at 16.7 µg/mL). actives 0.66% (n = 150,000). AID 588519; in the data active = % elongation below about 90%; also: some results filed as inactive read as strong as hits
# Target sequence (P03300 1749-2209 limits assumed): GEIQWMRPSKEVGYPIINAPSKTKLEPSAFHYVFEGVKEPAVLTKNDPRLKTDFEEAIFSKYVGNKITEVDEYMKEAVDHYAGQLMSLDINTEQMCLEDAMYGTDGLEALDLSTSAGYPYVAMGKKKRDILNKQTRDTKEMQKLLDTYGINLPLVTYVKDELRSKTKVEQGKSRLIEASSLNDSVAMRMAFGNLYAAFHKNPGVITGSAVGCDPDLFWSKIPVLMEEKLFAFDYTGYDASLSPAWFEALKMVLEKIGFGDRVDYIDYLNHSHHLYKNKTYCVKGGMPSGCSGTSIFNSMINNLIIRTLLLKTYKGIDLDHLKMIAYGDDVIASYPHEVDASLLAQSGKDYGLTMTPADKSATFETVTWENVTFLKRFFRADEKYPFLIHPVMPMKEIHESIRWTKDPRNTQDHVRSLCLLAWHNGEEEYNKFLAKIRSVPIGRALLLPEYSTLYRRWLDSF
# MenB inh: Mtb MenB enzyme inhibition | P9WNP5 | actives 0.43% (n = 100,000) | MenB enzyme assay, absorbance read-out; some hits fall short of the stated cut | AID 540299 | inhibition, %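 (about 12 µg/mL by stock and volumes)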;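 active = mean of two replicates above 30%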;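 also: 0% = no compound and 100% = wells with inactive enzyme; the first replicate is given; strong numbers were not always called active; inactives centre near -10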
# Target sequence (P9WNP5 whole entry, looked up): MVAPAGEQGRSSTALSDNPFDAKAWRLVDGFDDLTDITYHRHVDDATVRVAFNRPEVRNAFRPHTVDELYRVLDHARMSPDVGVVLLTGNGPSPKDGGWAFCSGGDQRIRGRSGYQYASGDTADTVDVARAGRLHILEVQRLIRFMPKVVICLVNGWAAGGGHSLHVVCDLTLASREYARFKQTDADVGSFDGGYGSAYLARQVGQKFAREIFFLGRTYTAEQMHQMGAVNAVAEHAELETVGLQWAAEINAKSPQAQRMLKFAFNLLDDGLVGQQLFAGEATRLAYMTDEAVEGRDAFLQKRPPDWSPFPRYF
# MbtI inh: blocks the Mycobacterium tuberculosis siderophore enzyme MbtI | purified MbtI enzyme, fluorescence intensity read-out | actives 0.89% (n = 100,000) | inhibition, %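 (about 17 µg/mL by stock and volumes)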;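 active = above 50% in both replicates, above 80% if mildly self-fluorescent; inactive = the rest, strongly fluorescent compounds included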;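 also: 0% = mean of negative and 100% = mean of positive controls; one replicate is shown; some compounds called inactive have numbers as strong as hits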
# Polio RdRp inh intensity: recorded beside Polio RdRp inh, whose call it bears; % elongation; measured here: total intensity read-out; formula for this scale not given here;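 total fluorescence in place of polarization; lower means less elongation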
# * marks the source's active call; other numbers are inactive results; i = inactive; · = no result given; & = joins results of further samples. Rows were taken by chance; about 1.7% have a hit in one of these screens.
compound	Polio RdRp inh	Polio RdRp inh intensity	MenB inh	MbtI inh
O=C(NCc1nc(-c2ccccc2)no1)C1CCCCC1	106.0	98.0	-2.4	0.4
S=C(NCc1ccncc1)NCc1ccco1	101.0	101.0	6.3	7.2
CCc1ccc(C2CC(=O)NC3=C2C(=O)CC(C)(C)C3)cc1 (configuration not stated)	102.0	105.0	-17.7	-2.1
Cc1cc(S(=O)(=O)N2CCCN(c3nc4ccc(Cl)cc4s3)CC2)c(C)cc1Cl	110.0	111.0	-8.2	-15.4
Cc1ccc(CN(C(=O)Nc2ccc(C)c(F)c2)C2CCN(Cc3ccccc3)CC2)o1	101.0	103.0	-3.6	-16.3
COc1cccc(N2CCN(S(=O)(=O)c3cc4c(cc3C)N(C)CCO4)CC2)c1	104.0	107.0	-12.9	15.8
CCn1c(O)c(/C(C)=N/c2ccnn2C2CCCCC2)c(=O)n(CC)c1=S	117.0	117.0	-4.2	14.8
O=C1CCC(C(=O)OCn2nnc3ccccc3c2=O)=NN1	105.0	111.0	-9.0	52.9
CCn1cc(NC(=S)Nc2cc(Cl)ccc2OC)c(C(N)=O)n1	100.0	100.0	-15.8	29.8
Cc1cc(OCCNCCN)cc(C(C)C)c1	101.0	104.0	-8.3	-11.6
C=CCn1c(=O)c2c(nc3n2CCCN3C2CCCCC2)n(C)c1=O	100.0	94.0	-12.3	0.5
CC1CCC(CC(=O)O)(CC(=O)O)CC1	104.0	101.0	-11.1	-13.2
CCOc1cc(CNc2ccc(NC(=O)CC)cc2)ccc1OCc1cccs1	99.0	99.0	-36.1	-3.4
CN(Cc1ccc(-c2ccc(Cl)cc2)o1)C(C(=O)NC(N)=O)c1ccccc1 (configuration not stated)	108.0	106.0	13.0	30.9
COC(=O)c1ccccc1S(=O)(=O)Nc1cc(Cl)ccc1C	108.0	116.0	-13.5	-3.0
CCCC1CCC(c2ccc(C#N)c(=O)[nH]2)CC1 (configuration not stated)	100.0	103.0	10.6	i
CCc1c(O)nc(SCC(=O)N2CCc3ccccc32)n(-c2ccc(F)cc2)c1=O	104.0	107.0	-9.3	7.8
Cc1ccc(C(=O)COC(=O)c2ccc(-c3nnc(-c4ccccc4)o3)cc2)cc1C	105.0	105.0	-8.3	·
CC(C)(C)Cc1cc(N)on1	102.0	107.0	-33.0	-8.3
CC1=Nc2ccc(N)cc2C1(C)C	104.0	110.0	5.0	17.7
Cc1occc1-c1nnc(SC(C)c2nc3sc4c(c3c(=O)[nH]2)CCC(C)C4)n1N (configuration not stated)	102.0	107.0	-27.1	-3.1
CCOC(=O)c1cc2c(ccn2C)n1Cc1ccc(OC(F)(F)F)cc1	100.0	112.0	-152.7	26.7
CNCc1ccccc1OC	104.0	111.0	-1.2	5.0
C=CC(=O)Nc1ccc(OC(F)(F)F)cc1	102.0	99.0	-22.9	1.4
COc1cccc(C2C(C(=O)Nc3ccccc3)=C(C)N=C3SCC(=O)N32)c1 (configuration not stated)	104.0	101.0	-27.5	-2.3
Cc1ccc(-c2nn(-c3ccccc3)cc2/C=C2\SC(=S)N(CCCC(=O)O)C2=O)cc1	102.0	100.0	-43.5	0.8
Cc1ccccc1Nc1nc(N)nc(CNCCCN2CCCCCC2=O)n1	111.0	103.0	-7.2	16.4
O=C(CN1CCN(c2ccccc2Cl)CC1)NCC(F)(F)F	·	·	-30.0	-4.5
COc1ccccc1CC(=O)NCC(c1ccco1)N1CCCCC1 (configuration not stated)	108.0	110.0	-4.8	-1.2
Cc1cc(C(F)(F)F)nc(NC(C)c2ccccc2)n1 (configuration not stated)	99.0	100.0	-20.2	9.4

# (listing goes on)
compound	Polio RdRp inh	Polio RdRp inh intensity	MenB inh	MbtI inh
CCN(CC)S(=O)(=O)c1ccc(F)cc1	106.0	112.0	-15.1	·
Cc1occc1C(=O)Nc1ccc(S(=O)(=O)N(C)C)cc1	105.0	110.0	-18.5	-13.8
CC(CCc1ccco1)NC(=O)Nc1cn(C)c(=O)c2ccccc12 (configuration not stated)	97.0	96.0	-15.1	-22.6
CN(C(=O)CSc1ccc2c(c1)OCCO2)c1c(N)n(Cc2ccccc2)c(=O)[nH]c1=O	101.0	103.0	1.5	14.6
CCC(CC)NC(=O)c1cc(Cl)ccc1Cl	100.0	101.0	-16.2	-4.0
CCn1c(SCc2csc(CC(=O)Nc3ccc(C)cc3)n2)nnc1-c1ccco1	103.0	115.0	3.7	6.3
CC(=O)Nc1ccccc1NC(=O)c1cccs1	102.0	91.0	-18.3	·
c1ccc(-c2csc(N3CCC(c4ccccc4)C3)n2)cc1 (configuration not stated)	101.0	103.0	-13.3	·
c1ccc(-n2nnnc2NCC(c2ccco2)N2CCCCC2)cc1 (configuration not stated)	102.0	92.0	-27.5	-11.8
O=C(CN1C(=O)c2ccccc2C1=O)N1CCN=C1c1ccccc1	102.0	106.0	-28.3	-77.4
N#CCCn1c(=O)n(CCC#N)c(=O)n(CCC#N)c1=O	103.0	102.0	-16.8	-19.4
CC1(C)C=Cc2c(c3occc3c3oc(-c4ccccc4)cc(=O)c23)O1	100.0	96.0	2.5	4.3
O=C1Nc2ccccc2N(O)N1c1ccc(S(=O)(=O)N2CCOCC2)cc1	105.0	104.0	4.4	-7.3
CCOC(=O)C1=C(N)Oc2ccc(Br)cc2C1C(C#N)C(=O)OCC (configuration not stated)	105.0&103.0	100.0&99.0	-9.4	50.7
COc1cccc(/C=N/n2c(N3CCOCC3)nc3ccccc32)c1OC	104.0	104.0	-23.0	68.7
CC(C)CNC(=O)c1ccc2c(=O)n(CC(C)C)c(=S)[nH]c2c1	107.0	110.0	-18.7	-25.8
N#CCCN(CCN1CCOCC1)C(=S)Nc1ccc(Cl)c(Cl)c1	104.0	107.0	-5.6	3.2
O=C(/C(=C/c1cccs1)c1cccs1)N1CCCCCC1	99.0	101.0	·	3.0
COC(CNC(=O)Cn1nc(Cc2cccnc2)c2ccccc2c1=O)OC	99.0	104.0	6.4	-2.9
CC(CN1CCOCC1)OC(=O)Cc1ccc(Cl)cc1 (configuration not stated)	100.0	102.0	15.2	-4.8
C=C1c2ccccc2NC(=O)N1c1ccc(C)cc1	101.0	101.0	-9.1	29.4
CC1CCCN(C(=O)Cn2cc(S(=O)(=O)N3CCN(c4ccccc4F)CC3)c3ccccc3c2=O)C1 (configuration not stated)	99.0	98.0	-7.0	3.5
Cc1onc(-c2c(Cl)cccc2Cl)c1C(=O)O/N=C(\N)CN1CCSCC1	99.0	102.0	11.2	-1.8
CN(C)C(=O)CSc1nc2cc(Cl)ccc2o1	·	·	-27.3	-4.6
CC(C)(O)C12CC3CC(C1)CC(C(C)(C)O)(C3)C2	101.0	106.0	6.2	-12.4
CN(C)C(=O)c1coc2nc3ccccc3nc12	98.0	103.0	·	-85.6
O=C(O)C1C2C=CC(C2)C1C(=O)NCc1cccs1 (configuration not stated)	99.0	101.0	22.7*	-16.6
Cc1ccc(C(=O)N(C)c2ccc(OCC(=O)N(C)C3CCN(C)CC3)cc2)cc1	104.0	108.0	·	-7.7
COC(CN(C(C)=O)C1CCCc2c1[nH]c1ccc(C)cc21)OC (configuration not stated)	105.0	109.0	4.0	-3.5
NC(=O)C1CCCN1c1nc(-c2cccs2)nc2ccccc12 (configuration not stated)	103.0	99.0	-21.0	-8.5

# (cont.)
compound	Polio RdRp inh	Polio RdRp inh intensity	MenB inh	MbtI inh
CN(c1nc2ccccc2[nH]c1=O)C1CCCCC1	103.0	124.0	1.6	-8.9
CC(C)CN(Cc1c(O)ccc2c(=O)c(-c3ccccc3)coc12)CC(C)C	107.0	103.0	-7.8	·
CCCNC(=O)Cn1cc2c(n1)CCCCC2	101.0	97.0	-5.0	-2.9
CCNC(=S)N/N=C/c1ccc(OCC(=O)N2CC(C)OC(C)C2)c(OC)c1 (configuration not stated)	107.0	100.0	-12.2	38.4
CCN(C(=O)COc1ccc(C)cc1C)C1CCS(=O)(=O)C1 (configuration not stated)	·	·	-15.3	-15.0
CN(C)c1ccc2c3c(cccc13)C(=O)N(c1ccccc1)C2=O	96.0	114.0	-14.2	-8.7
N#CC1=C(N)C(C#N)(C#N)C(c2ccc(OC(F)F)cc2)C=C1C1CC1 (configuration not stated)	99.0	119.0	-26.8	-3.2
CCOc1ccc(C(N)=O)cc1OC	99.0	100.0	-62.7	15.5
c1cncc(-c2nc3ccccn3c2Nc2ccc3c(c2)OCCO3)c1	100.0	105.0	-24.5	47.7
COCCNC(=S)Nc1nc(OC)cc(OC)n1	101.0	102.0	-1.0	-12.4
COc1cc(OC)c(CNc2ccc3cn[nH]c3c2)cc1Br	97.0	101.0	0.4	-31.0
COc1ccc(/C(O)=C/c2nc3ccc(C(=O)N4CCOCC4)cc3[nH]c2=O)cc1OC	131.0	154.0	-166.1	5.2
Cc1ccc(CC2SC(=O)NC2=O)cc1Cl (configuration not stated)	99.0	90.0	-10.1	·
N#CCSc1nc2scc(-c3cccs3)c2c(=O)n1CCc1ccccc1	104.0	108.0	-21.6	-16.9
COc1cc(C(=O)NCC(c2ccccc2)c2c[nH]c3ccccc23)cc(OC)c1OC (configuration not stated)	103.0	115.0	-3.9	-2.5
CC(=O)NC(Cc1cnc[nH]1)C(=O)O (configuration not stated)	98.0	103.0	-24.5	-6.6
COc1ccc(N=C2SCCCN2C(=O)C2CCCC2)cc1OC	102.0	109.0	-12.1	4.0
COC(=O)c1c(-c2c(Cl)cccc2Cl)noc1NC(=O)NCc1ccccc1	102.0	85.0	-24.8	-12.1
Cc1ccc(NCn2nnc3ccccc32)cc1	103.0	102.0	·	2.7
Cc1cccc(OCC(=O)O)c1C	103.0	107.0	·	-10.1
COc1ccc(NC(=O)CSc2nncn3c2cc2occc23)cc1	100.0	104.0	-37.3	23.1
Fc1ccc(NCc2cn(-c3ccccc3)nc2-c2cccs2)c(F)c1	101.0	98.0	-8.4	-3.4
Nc1nc2nc3ccccc3n2c(=O)[nH]1	102.0	97.0	-25.0	38.5
CCCOc1ccc(C2(C(=O)O)CCCC2)cc1	102.0	101.0	-13.5	-2.1
CCN(C(=O)Cc1noc2ccccc12)c1cc(OC)ccc1OC	103.0	107.0	-9.3	-7.7
CC(=O)N1CCc2cc(C(O)CN3CCN(c4ccccn4)CC3)ccc21 (configuration not stated)	100.0	101.0	-13.6	6.0
CCOC(=O)c1[nH]c2ccccc2c1NC(=S)Nc1cccc(C)c1C	102.0	106.0	-37.5	-10.4
CCc1ccc(NS(=O)(=O)c2ccc3[nH]cc(C(=O)NC)c(=O)c3c2)cc1	102.0	107.0	-5.2	-11.7
CC(NC(N)=S)c1ccccc1 (configuration not stated)	108.0	107.0	-5.0	6.4
CC(NC(=O)COc1ccc(C#N)cc1)C12CC3CC(CC(C3)C1)C2 (configuration not stated)	101.0	106.0	·	-11.1
CCN1C(=O)/C(=C/c2ccccc2NC(C)=O)OC1=S	100.0	104.0	-64.2	-9.8
O/C(=C\SC1=NCCN1)C12CC3CC(CC(C3)C1)C2	102.0	101.0	·	-6.7

# Grouped by structure: the compounds so far with a furan ring, fused or not
compound	Polio RdRp inh	Polio RdRp inh intensity	MenB inh	MbtI inh
S=C(NCc1ccncc1)NCc1ccco1	101.0	101.0	6.3	7.2
Cc1ccc(CN(C(=O)Nc2ccc(C)c(F)c2)C2CCN(Cc3ccccc3)CC2)o1	101.0	103.0	-3.6	-16.3
CN(Cc1ccc(-c2ccc(Cl)cc2)o1)C(C(=O)NC(N)=O)c1ccccc1 (configuration not stated)	108.0	106.0	13.0	30.9
Cc1occc1-c1nnc(SC(C)c2nc3sc4c(c3c(=O)[nH]2)CCC(C)C4)n1N (configuration not stated)	102.0	107.0	-27.1	-3.1
COc1ccccc1CC(=O)NCC(c1ccco1)N1CCCCC1 (configuration not stated)	108.0	110.0	-4.8	-1.2
Cc1occc1C(=O)Nc1ccc(S(=O)(=O)N(C)C)cc1	105.0	110.0	-18.5	-13.8
CC(CCc1ccco1)NC(=O)Nc1cn(C)c(=O)c2ccccc12 (configuration not stated)	97.0	96.0	-15.1	-22.6
CCn1c(SCc2csc(CC(=O)Nc3ccc(C)cc3)n2)nnc1-c1ccco1	103.0	115.0	3.7	6.3
c1ccc(-n2nnnc2NCC(c2ccco2)N2CCCCC2)cc1 (configuration not stated)	102.0	92.0	-27.5	-11.8
CC1(C)C=Cc2c(c3occc3c3oc(-c4ccccc4)cc(=O)c23)O1	100.0	96.0	2.5	4.3
CN(C)C(=O)c1coc2nc3ccccc3nc12	98.0	103.0	·	-85.6
COc1ccc(NC(=O)CSc2nncn3c2cc2occc23)cc1	100.0	104.0	-37.3	23.1
